Screening results as filed in PubChem.
E coli growth = E. coli growth inhibition; Escherichia coli growth, OD600, 23 h; hits give low values; OD600 absorbance (no concentration beside the values); 0.21% of 330,000 active;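 active = OD600 absorbance below the run mean of sample wells minus 3.6 SD, in any replicate, cut at about 0.56 in these data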;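 note: stock transfer was 300 nL into about 60 µL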
FGF22 binding = FGF22 (human) thermal shift binding; recombinant FGF22 thermal shift, SYPRO orange fluorescence; percent of sucrose octasulfate shift, DMSO zero; calls only at 9.99 µM; 1.5% of 340,000 active;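 active = melting point raised past a set limit in the mean and every replicate; inconclusive = no clear call; three in four hits are not shown here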
Target sequence (Q9HCT0 whole entry, looked up): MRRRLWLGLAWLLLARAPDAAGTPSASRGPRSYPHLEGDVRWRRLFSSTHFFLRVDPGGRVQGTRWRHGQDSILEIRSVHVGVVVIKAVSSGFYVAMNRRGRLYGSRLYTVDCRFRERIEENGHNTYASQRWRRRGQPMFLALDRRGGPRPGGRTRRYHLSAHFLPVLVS
HNF4A DNA FP = change in binding of human HNF4 alpha to DNA; HNF4a-FITC DNA binding, fluorescence polarization, 1 h; AID 1224865; 0.3% of 360,000 active; activity change, % at 10 µM; P41235; in the data active = activity change above about 30%, passing the limit was not always enough;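 note: controls were the assay level and a saturating level of protein; the project sought stronger binding though the title names inhibitors; some compounds called inactive have numbers as strong as hits; positive values seem to mean higher polarization but the record does not say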
RanGTP-Imp inh = inhibitors of RanGTP-importin-beta interaction, primary screen, biochemical, FRET, CFP-Ran, YFP-importin-beta, homogeneous | AID 2216 | inhibition, % (test concentration not listed) | 1.1% of 300,000 active | cell-free CFP-Ran/YFP-importin-beta FRET ratio;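 active = most replicates above 15%; inconclusive = exactly half above 15%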;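 note: 0% = DMSO wells and 100% = Ran loaded with GDP instead of GTP; wells of about 40 µL received 100 nL stock; the first replicate is given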
AF4-AF9 inh = inhibitors of human MLL-AF4/AF9 interaction; AID 651704; 0.47% of 350,000 active; inhibition, % at 10 µM; P42568; AlphaScreen, biotin-AF4 peptide binding to FLAG-AF9;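 active = every replicate reaching a set inhibition limit, whatever the replicate mean, cut at about 25% in these data; inconclusive = mean inhibition reaches that limit but some replicates miss it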;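 note: 0% = plate neutral control median and 100% = total signal loss; the record names both 10 and 1 µM as test concentration; the first replicate is given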
Target sequence (P42568 whole entry, looked up): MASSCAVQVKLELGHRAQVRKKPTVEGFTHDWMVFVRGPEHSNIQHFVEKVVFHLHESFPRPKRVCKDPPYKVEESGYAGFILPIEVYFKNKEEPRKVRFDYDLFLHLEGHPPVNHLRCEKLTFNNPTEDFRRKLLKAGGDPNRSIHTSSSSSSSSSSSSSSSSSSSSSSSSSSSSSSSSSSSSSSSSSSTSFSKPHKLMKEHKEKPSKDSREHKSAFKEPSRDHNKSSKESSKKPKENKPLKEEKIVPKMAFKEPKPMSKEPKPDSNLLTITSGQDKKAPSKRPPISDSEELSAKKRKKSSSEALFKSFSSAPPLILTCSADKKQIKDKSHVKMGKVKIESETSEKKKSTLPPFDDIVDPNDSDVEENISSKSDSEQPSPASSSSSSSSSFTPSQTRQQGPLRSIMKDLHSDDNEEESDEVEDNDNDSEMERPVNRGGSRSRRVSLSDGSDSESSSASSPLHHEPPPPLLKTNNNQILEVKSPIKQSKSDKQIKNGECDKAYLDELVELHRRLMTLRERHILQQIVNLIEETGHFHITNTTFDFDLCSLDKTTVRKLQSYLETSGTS
Vif TR-FRET = HIV-1 Vif–A3G interaction blockers – biochemical, TR-FRET, GST-Vif 1-94, biotin-A3G peptide, dose response retest, primary screen (AID 1117319). 0.57% of 260,000 active. one-dose inhibition, %; IC50 in µM for titrated hits. TR-FRET GST-Vif / biotin-A3G peptide binding; higher % means a stronger effect; test concentration not given here; strong numbers were not always called active;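 active = above the screen mean plus three standard deviations and confirmed in dose response; inconclusive = results disagree or hit not tested in dose response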;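 note: Vif residues 1-94 fused to GST binding biotinylated APOBEC3G peptide 110-148; 0% = full assay without inhibitor and 100% = GST in place of GST-Vif; retest series ran down from 100 µM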
UCH37 inh = inhibitors of human deubiquitinating enzyme UCH37; Q9Y5K5; purified proteasome/UCH37, Ub-AMC cleavage fluorescence; inhibition, % (no concentration beside the values); 0.33% of 330,000 active; AID 588478;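 active = mean of two replicates above 20%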;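 note: 0% = compound-free wells with enzyme and 100% = wells lacking proteasome; stock transfer was 100 nL into about 20 µL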
Target sequence (Q9Y5K5 whole entry, looked up): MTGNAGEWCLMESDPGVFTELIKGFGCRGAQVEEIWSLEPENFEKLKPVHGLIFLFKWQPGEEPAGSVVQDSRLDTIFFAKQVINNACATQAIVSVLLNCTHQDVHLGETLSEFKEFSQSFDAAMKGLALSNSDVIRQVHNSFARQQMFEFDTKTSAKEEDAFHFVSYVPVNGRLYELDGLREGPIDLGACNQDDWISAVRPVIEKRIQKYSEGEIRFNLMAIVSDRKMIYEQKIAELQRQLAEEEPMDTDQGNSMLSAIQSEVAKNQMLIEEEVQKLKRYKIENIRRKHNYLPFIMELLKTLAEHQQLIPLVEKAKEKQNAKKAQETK
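Material: Human UCH37 enzyme supplied as purified proteasome complex | Schedule: 30 min preincubation with enzyme, 25 min cleavage at room temperature | Detection: AMC fluorescence 355/460 nm | Measure: % inhibition of Ub-AMC cleavage fluorescence | Controls: Wells without proteasome as full block, compound-free enzyme plus substrate as uninhibited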
An asterisk follows results filed as active; i = inactive; ? = inconclusive; / = not tested or not shown; & = joins results of further samples. Some of the compounds tested, so the mix of outcomes need not match the whole.

SMILES	E coli growth	FGF22 binding	HNF4A DNA FP	RanGTP-Imp inh	AF4-AF9 inh	Vif TR-FRET	UCH37 inh
COc1cc(NC(=O)c2ccc([N+](=O)[O-])cc2)c(OC)cc1NC(=O)CC(C)C	0.66	i	-0.1	2.9	0.1	2%	4.1
Cc1ccc(-c2csc3ncnc(N4CCN(C)CC4)c23)cc1C	0.64	i	-4.1	3.3	4.5	/	2.8
O=C(CSc1nnc(-c2ccco2)n1-c1ccccc1)N1CCN(C(=O)c2ccco2)CC1	0.72	/	-1.9	1.6	/	-5%	1.2
CN1CCN(c2ccc(CNC(=O)C3(C)Cc4c(-c5ccc6c(c5)OCO6)ccnc4O3)cc2)CC1 (stereo unspecified)	/	i	-5.7	/	5.7	/	/
COC(=O)c1ccccc1NC(=O)CN1C(=O)c2ccccc2S1(=O)=O	0.71	/	0.3	2.5	/	-3%	1.2
Cc1cc(C(=O)N/N=C2\CCCC(=O)C2)c(C)o1	/	i	-1.1	/	0.6	6%	/
CCC(NC(=O)N(Cc1ccccc1)Cc1ccc2c(c1)OCO2)(C(F)(F)F)C(F)(F)F	0.72	/	6.7	0.3	/	0%	1.2
Cc1cc(NC(=O)CSc2ccc3nnc(-c4ccc(Cl)cc4)n3n2)no1	0.71	/	4.3	13	/	3%	-24
CCC(=O)N1CCc2cc(Br)cc(S(=O)(=O)CCC(=O)NCCc3ccccc3)c21	0.7	/	-4.7	-1.4	/	2%	6.4
C[C@@]12C(=O)N(CC3CC3)CC(=O)N1[C@H](/C=C/c1ccccc1)[C@@H]1C(=O)N(c3ccccc3)C(=O)[C@@H]12	/	i	4.3	3.6	0.9	/	2.5
COCCCN1CC(=O)N2C(c3ccc(C)cc3)c3[nH]c4ccccc4c3C[C@H]2C1=O (stereo partly specified)	0.66	i	-3.1	0.3	3.6	2%	4.2
S=c1[nH]ncn1/N=C/c1ccccc1	/	/	44*	-2.6	/	5%	/
O=C(CSc1nc2ccccc2s1)CSc1nc2ccccc2s1	0.67	i	-0.3	7.5	-41	9%	1.7
CCOc1ccc(-c2nc(-c3cccs3)c(CC(=O)O)s2)cc1OC	0.71	i	-16	-0.8	-4.9	1%	-36
O=C(/C=C/C=C/c1ccccc1)c1ccco1	0.66	i	-3.4	6.1	4.8	/	-6.8

(cont.)
SMILES	E coli growth	FGF22 binding	HNF4A DNA FP	RanGTP-Imp inh	AF4-AF9 inh	Vif TR-FRET	UCH37 inh
CCOc1ccc(NC(=S)N2CCN(C/C=C/c3ccccc3)CC2)cc1	0.71	i	-1.9	-4.7	11	1%	1.3
CN(C)c1ccc(/C=C(/NC(=O)c2ccccc2)C(=O)N/N=C/c2ccc([N+](=O)[O-])c(O)c2)cc1	/	/	4.2	1.0	/	-4%&15%	/
CC1(C)CC(=O)C(C=NCCCN2CCCC2=O)=C(O)C1	0.66	/	1.1	1.7	/	-5%	0.7
CC(C)(C)c1ccc(-c2nc(NCc3cccnc3)c3ccccc3n2)cc1	0.73	/	0.9	?	/	4%	0.4
CC1CCc2sc(C(=O)OCC(=O)NCc3ccc(F)cc3)cc2C1 (stereo unspecified)	0.68	/	2.5	-2.5	/	/	0.3
Cc1ccc(C2=NN(CC(=O)NCc3ccco3)C(=O)CC2)cc1	0.68	/	-0.4	0.1	/	1%	0.3
Cc1ccc(NC(=O)Nc2cnccn2)c(C)c1	0.72	i	4.2	1.9	-3.6	4%	2.1
COc1ccc(-n2nc(C(=O)NCC(=O)N3CC(C)CC(C)C3)c3ccccc3c2=O)c(OC)c1 (stereo unspecified)	0.69	i	0.5	6.0	0.7	/	2.0
CCOC(=O)N1CCN(CC(=O)Nc2nnc(C(F)(F)F)s2)CC1	0.67	i	3.1	0.7	3.6	/	2.4
O=C1COc2ccc(C(=O)COC(=O)Cc3ccc(F)cc3)cc2N1	0.69	i	-7.1	2.8	-7.8	-9%	2.8
Cc1ccc(S(=O)(=O)N2CCCCC2)cc1NC(=O)CSc1ncccn1	0.7	i	1.8	/	0.3	0%	1.2
N/C(=N\OC(=O)Cc1ccccc1)c1cccnc1	0.6	/	0.4	6.9	/	3%	-0.6
COc1ccc([N+](=O)[O-])cc1NC(=O)CCc1ccccc1	0.62	/	-5.2	0.7	/	7%	0.0
CC(C)(C)NC(=O)NC(=O)COc1ccccn1	0.76	/	5.1	1.3	/	2%	1.6
Cc1ccc(NS(=O)(=O)c2ccc(-c3coc(C)n3)cc2)c(C)c1	0.67	i	-4.9	-0.5	0.2	/	4.5

Ordered by value in AF4-AF9 inh (high to low): 3 from the list above.
Molecule | AF4-AF9 inh
CCOc1ccc(NC(=S)N2CCN(C/C=C/c3ccccc3)CC2)cc1 | 11
CCOC(=O)N1CCN(CC(=O)Nc2nnc(C(F)(F)F)s2)CC1 | 3.6
O=C1COc2ccc(C(=O)COC(=O)Cc3ccc(F)cc3)cc2N1 | -7.8

Next section:
SMILES	E coli growth	FGF22 binding	HNF4A DNA FP	RanGTP-Imp inh	AF4-AF9 inh	Vif TR-FRET	UCH37 inh
O=C(NCCCn1ccnc1)/C(=C/c1ccco1)NC(=O)c1ccco1	0.62	i	-1.9	2.0	-1.8	-5%	3.5
CN(C)c1cccc(C(=O)OC(C(=O)Nc2ccc([N+](=O)[O-])cc2Br)c2ccccc2)c1 (stereo unspecified)	0.71	i	-0.7	-1.7	7.4	/	-1.7
O=S(=O)(NCC1CCCO1)c1cc(Cl)ccc1Cl (stereo unspecified)	0.62	i	2.7	2.9	6.6	3%	0.4
O=C(c1ccccc1)c1ccc(-n2ccnc2)c([N+](=O)[O-])c1	0.68	i	-0.6	-0.7	2.9	/	1.7
CC1CN(C(=O)COC(=O)c2ccc(N)c([N+](=O)[O-])c2)CC(C)O1 (stereo unspecified)	0.69	/	-1.1	-1.3	/	/	3.9
COC(=O)c1ccc(CNC(=O)CSc2nnc(COc3ccccc3)n2C)o1	0.64	/	-0.7	8.7	/	1%	4.4
O=C(Nc1ccc(Sc2ccc(Br)cc2)cc1)c1ccco1	0.78	/	0.5	3.8	/	-10%	0.6
COc1ccc(C2C(C#N)=C(C)NC3=C2C(=O)c2ccccc23)cc1 (stereo unspecified)	0.7	i	7.5	5.6	-34	-1%	8.5
O=S(=O)(c1cc(Cl)sc1Cl)N1CCCC1	0.67	i	-1.6	5.1	-1.1	/	-1.8
COc1ccc(C(=O)NCc2oc(-c3ccccc3)cc2C(=O)O)cc1	0.73	/	-1.2	1.3	/	-3%	-0.9
CCc1ccc(/C=C2/SC(=S)N(CCC(=O)Nc3cccnc3)C2=O)cc1	0.71	i	17	-0.5	-1.2	/	7.1
CC(C)CNC(=O)c1ccc(NC(=O)c2cccs2)cc1	0.65	i	-1.1	-4.6	0.1	-4%	2.4
Cc1cc(NCc2ccccc2Cl)n2nnnc2n1	0.69	/	3.0	?	/	-7%	3.4
O=C(c1cc(-c2cccs2)nc2ccccc12)N1CCN(c2ccccc2)CC1	0.69	i	-0.7	-4.4	12	/	-1.1
CCOC(=O)C(CC)(CC)C(=O)/C=C/c1ccc(OC)cc1	0.66	i	-0.3	-0.7	4.0	11%	3.8

The listing continues.
SMILES	E coli growth	FGF22 binding	HNF4A DNA FP	RanGTP-Imp inh	AF4-AF9 inh	Vif TR-FRET	UCH37 inh
COCCN(C(=O)COC(=O)c1ccccc1NCc1ccco1)c1c(N)n(Cc2ccccc2)c(=O)[nH]c1=O	0.69	i	6.3	-2.0	1.7	-3%	-430
O=c1[nH][nH]c2nc(C(F)(F)F)cc(C(F)(F)F)c12	0.7	/	3.0	2.6	/	-7%	3.0
COc1ccccc1[C@]1(C)ON(c2ccccc2C(F)(F)F)C1=O	0.67	i	0.3	/	-1.7	/	0.8
O=C(CSc1ccc(Cl)cc1)NN=C1CCCCCC1	0.66	i	6.6	-3.9	0.7	-5%	2.5
Cc1c(NC(=O)c2c([N+](=O)[O-])cnn2C)c(=O)n(-c2ccccc2)n1C	0.66	i	-0.3	-1.5	-3.0	/	5.3
O=C(Cc1ccccc1)Nc1ccc(SC(F)F)cc1	0.68	i	2.2	-0.5	0.9	23%	-0.1
Cc1ccc([N+](=O)[O-])cc1S(=O)(=O)N1CCCCC1C(=O)O (stereo unspecified)	0.64	i	2.1	1.0	-1.3	-5%	4.3
Cn1c(=O)c2c(nc(NCc3ccc4c(c3)OCO4)n2Cc2ccccc2Cl)n(C)c1=O	0.66	/	2.7	0.4	/	4%	2.7
COc1ccccc1NC(=S)c1ccccc1	0.64	/	-0.3	-2.1	/	/	4.6
CCOC(=O)C1=CCN(S(=O)(=O)c2ccccc2Cl)C1c1ccc(C)cc1 (stereo unspecified)	/	i	17	/	0.8	/	/
CCOc1ccc(S(=O)(=O)N2CCN(C(=S)NCC3CCCO3)CC2)cc1 (stereo unspecified)	0.64	/	2.2	1.9	-1.1	0%	0.7
COc1ccc(CN2CN(S(=O)(=O)c3ccccc3)c3nc4ccccc4nc32)cc1	0.72	i	-0.4	4.6	13	-4%	2.0
COc1ccc(NC(=O)c2cc(-c3ccccn3)nc3ccccc23)cc1S(=O)(=O)N(C)C	0.69	i	1.4	/	-1.7	1%	4.7
COc1ccc(CCNC(=S)NCc2cccs2)cc1OC	0.65	i	2.6	-1.9	-0.5	-12%	2.8
Oc1c(Cl)cc(Cl)c(Cl)c1Cc1c(O)c(Cl)cc(Cl)c1Cl	/	i	-3.4	7.8	-0.1	3%	/

(listing goes on)
SMILES	E coli growth	FGF22 binding	HNF4A DNA FP	RanGTP-Imp inh	AF4-AF9 inh	Vif TR-FRET	UCH37 inh
CN(CCOc1ccc(Cl)cc1)C(=O)c1cccc(S(=O)(=O)N2CCN(c3ccccc3)CC2)c1	0.66	i	1.6	/	2.2	/	-2.7
COC(=O)c1cccc(NC(=O)C(C)N2C(=O)c3ccccc3C2=O)c1 (stereo unspecified)	0.67	i	0.8	-1.0	9.6	?	0.6
COc1ccc(S(=O)(=O)N2CCCCCC2)cc1C(=O)N(C)Cc1ccc(Cl)cc1Cl	0.64	i	-0.1	-1.3	-2.2	-3%	-1.6
CN1CCN(C(=O)/C(=C\c2ccc3c(c2)OCO3)NC(=O)c2cccs2)CC1	/	i	2.4	?	-0.7	3%	7.9
Cc1ccc(-c2nnn(CC(=O)N(Cc3ccccc3F)C(C(=O)NC3CCCC3)c3ccncc3)n2)o1 (stereo unspecified)	0.77	/	-24	0.4	/	7%	-1.2
O=C(Nc1ccc(Cl)cc1)c1cc(S(=O)(=O)N2CCOCC2)cs1	0.67	/	1.7	2.8	/	-2%	2.9
CCc1cc(=O)oc2cc(OCC(N)=O)c(Cl)cc12	0.68	/	0.2	1.9	/	6%	-50
C[C@@H]1CN([C@H](C)CO)C(=O)CCCn2cc(nn2)CO[C@H]1CN(C)S(=O)(=O)c1ccc(Oc2ccccc2)nc1	/	i	1.0	/	-1.0&-2.0	0%	/
O=C(NCc1ccc(Cl)cc1)c1noc2c1CCCC2	0.65	/	-4.6	-0.7	/	4%	1.4
CCc1nnc(SC(C)C(=O)Nc2nccs2)n1C (stereo unspecified)	0.7	i	-1.4	3.1	0.0	/	2.3
COc1ccc(/C=C2\SC(=S)N(CCCC(=O)N3CCOCC3)C2=O)cc1OC	0.65	i	6.0	0.4	2.5	1%	3.4
Cc1ccc(S(=O)(=O)N2CCN(c3ccccc3)CC2)cc1C(=O)NC1CCCCC1	0.68	i	-2.0	-2.6	0.5	3%	0.7
Cc1ccc(N=CC2=C(O)CC(c3ccc(Cl)cc3)CC2=O)cc1 (stereo unspecified)	0.72	i	-1.0	0.0	2.6	-11%	-91
CCN(CC)CCN1C(=O)C(=O)/C(=C(/O)c2ccc(OC(C)C)cc2)C1c1cccs1 (stereo unspecified)	0.67	i	-2.5	-4.2	-2.4	-7%	7.4
